AID504770: E. coli YBA685 growth inhibition, screen for V. cholerae RctB inhibitors | E. coli YBA685 rctB-dependent plasmid, OD600 growth, 3 h; hits give low values | z-score (no concentration beside the values) | 130,000 compounds, 0.27% hits;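 active = z-score under -2 on both plates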;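 also: wells of about 30 µL received 100 nL stock; score is relative to mean and SD of the test wells; the first replicate is given; strong numbers were not always called active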
Ba CapD inh: blocks the Bacillus anthracis CapD enzyme; purified CapD enzyme, fluorescence intensity read-out; hits give low values; some hits fall short of the stated cut; z-score (concentration not given with the values); 140,000 compounds, 0.23% hits; AID 492967;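 active = z-score under -4 in either of two replicates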;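 also: stock transfer was 100 nL into about 40 µL; score is relative to mean and spread of the plate; one replicate is shown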
* marks the source's active call; other numbers are inactive results; . = not tested or not shown; & = joins results of further samples.

Each structure is followed by: AID504770	Ba CapD inh
CN1CCN(S(=O)(=O)c2cccc(S(=O)(=O)c3ccc(Cl)c(Cl)c3)c2)CC1
→ -0.35	.
CN(CCc1ccccn1)C(=O)c1ccc(Cn2c(=S)[nH]c3ccc(Br)cc3c2=O)cc1
→ .	-0.29
N#CSc1ccc2nc(-c3c(F)cccc3F)oc(=O)c2c1
→ -0.2	0.38
CC(=O)Nc1ccc(S(=O)(=O)Nc2nc(C)cc(-n3nc(C)cc3C)n2)cc1
→ .	0.64
O=C(Nc1cccc(NC(=O)C2COc3ccccc3O2)c1)c1ccccc1 (configuration not stated)
→ 0.05	-0.065
Cc1cccc(NC(=S)NNC(=O)CSCc2cccc3ccccc23)c1
→ .	1.2
CC(C)OC(=O)C1=C(N)SC(C(=O)c2ccccc2)C1c1ccccc1 (configuration not stated)
→ .	5.9
Cc1ccsc1C1C=C(c2cccc(Br)c2)Nc2ncnn21 (configuration not stated)
→ .	25
CCSC(=S)NC1CCS(=O)(=O)C1 (configuration not stated)
→ -0.8	0.99
CSc1nc(N)n2nc(C3CC3)cc2n1
→ .	0.27
O=C(CSc1ncccn1)N1CCN(C(=O)c2ccco2)CC1
→ 0.9	.
Cc1nc(SCc2nnc(-c3ccccc3)o2)c(C(N)=O)c(C)c1C
→ 0.2	.
Cc1ccc(C(=O)NC2CC2)cc1N1CCCC1=O
→ -0.2	-0.4
NC(=O)CSc1nc2c(sc3ccccc32)c(=O)n1-c1ccccc1
→ -0.85	0.27
COc1cccc(NC(=O)N2C3CCC2CC(O)(c2cccnc2)C3)c1 (configuration not stated)
→ -0.75	.
COc1ccc(-c2noc(CN(C(=O)C(C)(C)C)C(C)C)n2)cc1
→ -1.2	-0.55
CCC(C#CCN1CCOCC1)OC(C)=O (configuration not stated)
→ -0.15	0.02
O=C1CC(c2ccc(Cl)cc2Cl)c2ccc3ccccc3c2N1 (configuration not stated)
→ .	-0.56
O=C(Nc1ccccc1)OCc1cccnc1Sc1ccc(Cl)cc1
→ .	0.005
Cc1ccc(SCC(=O)N2CC(=O)Nc3ccccc32)cc1
→ 2.5	-0.095

Whole records from above.
Results for N#CSc1ccc2nc(-c3c(F)cccc3F)oc(=O)c2c1 → AID504770 = -0.2; Ba CapD inh = 0.38
Results for CSc1nc(N)n2nc(C3CC3)cc2n1 → AID504770 = .; Ba CapD inh = 0.27

Continuation:
Each structure is followed by: AID504770	Ba CapD inh
COc1ccc2ccccc2c1CN1CCN(C(=O)OCc2cccc(OC(F)(F)F)c2)CC1
→ .	-0.35
COc1cccc(C(=O)CCN2CCC(c3ccccc3)C2)c1 (configuration not stated)
→ -0.4	-0.4
CCOC(=O)C1(c2ccccc2)NC(c2ccc(O)c(OC)c2)C2C(=O)N(C)C(=O)C21 (configuration not stated)
→ -0.65	.
Cc1ccc(NC(=O)Cn2nc(C(N)=O)c3ccccc3c2=O)cc1
→ 1.4	.
CC(O)C(NC(=O)c1ccccc1)c1ccccc1 (configuration not stated)
→ -0.3	-0.27
Cc1oc(-c2cc(Cl)ccc2Cl)cc1-c1nn2c(C)nnc2s1
→ -0.05	.
COc1ccc(C2C(C#N)=C(N)N(c3ccccc3)C3=C2C(=O)CC(C)(C)C3)cc1OC (configuration not stated)
→ 0.7	0.37
[O-][n+]1onc2cc(Cl)ccc21
→ -0.65	-0.9
CCOC(=O)c1ccc2c(c1)nc(C(C)O)n2CC(=O)Nc1ccc(N(CC)C(C)C)cc1 (configuration not stated)
→ 0.05	.
O=C1NC(=Nc2ccccc2)SC1Cc1ccc(Cl)cc1 (configuration not stated)
→ .	0.055

Structures listed so far with a Cl atom, in the order listed:
Each structure is followed by: AID504770	Ba CapD inh
CN1CCN(S(=O)(=O)c2cccc(S(=O)(=O)c3ccc(Cl)c(Cl)c3)c2)CC1
→ -0.35	.
O=C1CC(c2ccc(Cl)cc2Cl)c2ccc3ccccc3c2N1 (configuration not stated)
→ .	-0.56
O=C(Nc1ccccc1)OCc1cccnc1Sc1ccc(Cl)cc1
→ .	0.005
Cc1oc(-c2cc(Cl)ccc2Cl)cc1-c1nn2c(C)nnc2s1
→ -0.05	.
[O-][n+]1onc2cc(Cl)ccc21
→ -0.65	-0.9
O=C1NC(=Nc2ccccc2)SC1Cc1ccc(Cl)cc1 (configuration not stated)
→ .	0.055

Further results:
Each structure is followed by: AID504770	Ba CapD inh
Cn1nc(C(=O)N2CCCN(Cc3ccccc3Cl)C2)c2c1-c1ccccc1OC2
→ 0.15	20
COc1ccc(-c2nc3ccccc3c(=O)n2NC(=O)c2ccccc2Br)cc1OC
→ .	-0.69
Cc1ccc(/C=C2/SC(=S)N(c3ccc(S(N)(=O)=O)cc3)C2=O)o1
→ -0.65	-1.9
COc1ccc(-c2noc(CN3CCC(C(=O)NCCC4=CCCCC4)CC3)n2)cc1OC
→ 0.75	-0.71
O=C(O)CSCC(=O)N1CCN(c2ncccn2)CC1
→ 0.05	2.6
CCn1c(C)nc2cc(C(=O)N=Nc3c(O)[nH]c4ccccc34)ccc21
→ -0.1	.
COc1cc(NC(=O)c2c(-c3ccccc3Cl)noc2C)c2ncccc2c1
→ -0.4	0.81
O=C(Nc1ccc(S(=O)(=O)N2CCCCCC2)cc1)C1CC(=O)N(c2ccccc2)C1 (configuration not stated)
→ -1.1	.
O=C1c2ccccc2C(=O)N1/N=C/c1cn(-c2ccccc2)nc1-c1cc2ccccc2o1
→ -0.6	.
COC(=O)C1=C(C)N(CCc2ccc(OC)c(OC)c2)C(=O)C1/C=[N+](\C)[O-] (configuration not stated)
→ .	-1.2

Reprinted from above for reference:
Each structure is followed by: AID504770	Ba CapD inh
O=C1c2ccccc2C(=O)N1/N=C/c1cn(-c2ccccc2)nc1-c1cc2ccccc2o1
→ -0.6	.
COC(=O)C1=C(C)N(CCc2ccc(OC)c(OC)c2)C(=O)C1/C=[N+](\C)[O-] (configuration not stated)
→ .	-1.2

(more compounds)
Each structure is followed by: AID504770	Ba CapD inh
Cc1cc(C)c(-n2c(O)c(C=Nc3cccc(O)c3)c(=O)[nH]c2=O)c(C)c1
→ 0	-0.015
O=C(NCc1ccccc1)C(Sc1nc2ccccc2c(=O)n1CC1CCCO1)C(=O)NCc1ccccc1 (configuration not stated)
→ .	-2
COc1ccc(C2SCC(=O)N2C)cc1 (configuration not stated)
→ -1.2	.
Cc1cccc(C)c1N1CCc2cn[nH]c21
→ 2.2	-0.33
O=C(/C=C/c1cc2cccc3c2n(c1=O)CC3)N1CCN(Cc2ccccc2)CC1
→ .	2.8
CC1CCc2c(sc3nc(SCC(=O)Nc4c[nH]c(=O)[nH]c4=O)[nH]c(=O)c23)C1 (configuration not stated)
→ -0.65	.
COc1ccc(N2C(=N)S/C(=C\c3cn[nH]c3-c3ccc(F)cc3)C2=O)cc1
→ .	-0.88
COC(=O)c1ccc(-n2c(C)cc(C(=O)CSc3nnc4ccccn34)c2C)cc1
→ .	-0.45
Cc1ccccc1NC(=O)Cc1nc(CSc2nnnn2C)cs1
→ -0.9	.
O=C(C1COc2ccccc2O1)N1CCc2ccccc2C1 (configuration not stated)
→ -0.05	0.19
Cc1ccc(NC(=O)Oc2ccc(F)cc2Cl)cc1Cl
→ 1.9	-0.35
CCN(CC)C(=O)Cn1cc(SCC(=O)N2CCCCC2)c2ccccc21
→ -0.5	0.78
COc1ccc(C2/C(=C(/O)c3ccccc3)C(=O)C(=O)N2c2ccc(F)cc2)cc1OC (configuration not stated)
→ .	0.79
COC(=O)c1c(NC(=O)C(C)Oc2ccccc2)sc2c1-c1ccccc1CC2 (configuration not stated)
→ 2.1	-0.52
COc1ccc(NC(=O)c2c(NC(=O)COc3ccc(Cl)cc3)sc3c2CCC3)cc1
→ .	0.3
CCC(C)NC(=O)C1c2ccccc2C(=O)N2CCc3ccccc3C12 (configuration not stated)
→ -0.85	-0.33
COC(=O)C1=NC=CN2CCS(=O)(=O)N=C12
→ 0.2	.
COC(=O)c1ccc(CN2CCCC(c3nc4ccccc4[nH]3)C2)o1 (configuration not stated)
→ -1.1	.
CN(C)c1ccc(C(N2CCOCC2)P(=O)(c2ccccc2)c2ccccc2)cc1 (configuration not stated)
→ -0.3	0.035
OC1(c2ccc(-c3ccccc3)cc2)COc2ccccc2O1 (configuration not stated)
→ -0.25	0.35
O=C1c2cccc3cccc(c23)N1Cc1ccc(F)cc1Cl
→ 1.9	2.5
Cc1ccc(-c2nc3ccc(C(=O)c4ccccc4)cc3nc2-c2ccc(C)cc2)cc1
→ .	0.51
O=C(CSc1cnccc1C(F)(F)F)NN1CCOCC1
→ .	-0.22
CCC1CN(C(=O)Nc2ccccc2)c2ccccc2O1 (configuration not stated)
→ -1.7	-0.67
CCOC(=O)Cn1c(=O)oc2cc(S(=O)(=O)N(C)CCC#N)ccc21
→ -0.05	0
Cc1cccc(NC(=O)c2sc3nc4c(c(-c5ccco5)c3c2N)CCC4)c1
→ .	1.1
O=CC12c3ccccc3C(c3ccccc31)C1C(=O)N(c3ccc(N=Nc4ccccc4)cc3)C(=O)C12 (configuration not stated)
→ .	-0.95
COC(=O)Cn1c(=N)n(CCN2CCOCC2)c2ccccc21
→ 1.4	-0.095
O=C(CNc1ccccc1)N/N=C/c1ccc(F)cc1
→ -0.8	0.06
Nc1nn(S(=O)(=O)c2ccc(Br)cc2)cc1-c1ccccc1
→ 0.55	0.12
CCn1c(=O)c2cc(C(=O)NCC3CCCO3)sc2c2ccccc21 (configuration not stated)
→ -0.3	-0.81
Cc1nc2sccn2c(=O)c1S(=O)(=O)N1CCC(Cc2ccccc2)CC1
→ 0.45	4.8
O=C(/C=C/C(=O)Nc1cccc(O)c1)Nc1cccc(O)c1
→ 0.05	-0.72
COCCOC(=O)C1=C(C)NC(C)=C(C(=O)OCCOC)C1c1ccc(-c2ccc(Cl)cc2)o1
→ .	10
O=[N+]([O-])c1ccc(N/N=C/c2ccc(-c3cc(C(F)(F)F)ccc3Cl)o2)cc1
→ .	-0.21
O=S(=O)(Nc1cc(Sc2cccc3cccnc23)c(O)c2ccccc12)c1ccc(Cl)cc1
→ -0.1	0.11
O=S(=O)(c1ccccc1OC(F)(F)F)N1CCN(c2ncnc3sccc23)CC1
→ .	0.13
CCOc1ccc(NS(=O)(=O)c2ccc3[nH]cc(C(=O)NC(C)CC)c(=O)c3c2)cc1 (configuration not stated)
→ -0.4	0.14
COc1cccc(-c2nc3sc4c(c3c(=O)n2Cc2csc(-c3ccc(Cl)cc3)n2)CCCC4)c1
→ .	-0.51
O=C(Nc1ccc(S(=O)(=O)Nc2ccccc2)cc1)N1CCCC1
→ 0.3	0.35
O=C(O)c1nnn(-c2ccccc2Oc2ccc(Cl)cc2Cl)c1-c1ccccc1
→ .	0.005
Cc1ccc(C(=O)C(C)Sc2nc3ccccc3o2)cc1 (configuration not stated)
→ 0.1	0.59
COC(=O)c1c(NC(NC(C)=O)(C(F)(F)F)C(F)(F)F)sc2c1CCN(C)C2
→ 0.4	1.1
COc1ccc(NC(=O)C2CCCCC2)cc1OC1CCCC1
→ -0.9	-0.58
CCOC(=O)c1sc(=S)n(-c2ccc3c(c2)OCO3)c1N
→ 0.65	0.14
O=c1[nH]c(O)c(/C=C2\C=Nc3ccccc32)c(=O)[nH]1
→ .	-0.26
Cc1ccc(NCC(O)COc2ccc(OCc3ccccc3)cc2)cc1 (configuration not stated)
→ 2	-0.31
CCc1cccc(C(C)C)c1NS(=O)(=O)c1ccc(C)cc1
→ -0.4	-0.065
CC(=O)NC(=S)Nc1cccc(-c2nc3c(ccc4ccccc43)o2)c1
→ -0.1	17
CCOC(=O)c1sc(N)c(C#N)c1CSc1nc2sc3c(c2c(=O)n1C)CCCC3
→ 0.55	.

Next compounds follow:
Each structure is followed by: AID504770	Ba CapD inh
O=C(CC(NCC1CCCO1)C(=O)O)Nc1cccc(Cl)c1Cl (configuration not stated)
→ 0.05	0.46
COc1ccc(CNC(=O)C2CC(O)CN2C(=O)Nc2ccccc2)cc1 (configuration not stated)
→ 0	.
CCOC(=O)Cc1csc(NC(=O)c2c(O)c3c(n(Cc4ccco4)c2=O)CCCC3)n1
→ .	1.8
Cc1[nH]c2ccccc2c(=O)c1CN(C)C
→ -0.95&-0.45	-1.1
N#Cc1c(N)nc(SCC(=O)c2cc3ccccc3oc2=O)c(C#N)c1-c1cccs1
→ .	0.61
CCN(CC)C(=O)c1sc2nc3c(cc2c1N)C1CCN3CC1
→ 0.7	4.8
CN(C)C(=O)Nc1ccccc1
→ 0.65	0.24
CN1C2CCC1CC(O)C2 (configuration not stated)
→ -1.1	-0.44&0.02
c1ccc(C2=NC2c2ccccc2)cc1 (configuration not stated)
→ 2.4	29
O=C1CCC(c2ccccc2)C(O)=C1C=Nc1cccnc1 (configuration not stated)
→ -0.05	0.39
CCOC(=O)c1[nH]cnc1C(=O)Nc1ccc(C)cc1
→ -0.9	6
CC(C)(C)c1ccc(C(=O)n2cnnc2N)cc1
→ 0	-0.075
c1nnc2c3c4c(sc3ncn12)CCC4
→ 0.6	-0.6
CCOC(=O)c1c(NC(=O)C(C)Sc2nnc(CNC(=O)c3ccccc3F)n2Cc2ccccc2)sc2c1CCC2 (configuration not stated)
→ .	-0.42
O=C(c1cc(C2CC2)[nH]n1)N1CCN(c2cccc(C(F)(F)F)c2)CC1
→ -0.7	-0.15
COC(=O)C1C(=O)NC(SCC(=O)Nc2ccc(OC)cc2)=C(C#N)C1c1ccc(C)cc1 (configuration not stated)
→ .	-0.82
Cc1ccc(NS(=O)(=O)c2ccccc2C(F)(F)F)cc1C
→ -0.5	.
Cc1cc(C)cc(NC(=O)CNCC(F)(F)F)c1
→ 1.4	.
COC(CNC(=S)Nc1ccc(Cl)cc1)OC
→ 0.65	1.4
O=C(Cc1c(Cl)cccc1Cl)NNC(=O)c1cnn(-c2ccc([N+](=O)[O-])cc2)c1C(F)(F)F
→ .	-0.79
c1ccc(-c2ccc3c(c2)c2c4n3CCNC4CCC2)cc1 (configuration not stated)
→ -1.2	1.5

Assay outcomes (PubChem)
